Source: PubChem BioAssay
TRPML1 inh – blocks the human TRPML1 channel; TRPML1-inducible cells, Ca2+ dye fluorescence, FDSS; hits give low values; inhibition of EC80 agonist-evoked calcium signal; hit rate 0.02% among 390,000; activity change, negative = inhibition, % (test concentration not listed); AID 624415; Q9GZU1; in the data active means activity change below about -50%; inconclusive means about -30% to -50%; inactive means above about -30%;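 further: stimulus is agonist 54-4 at its EC80 concentration; on the % scale 0 is the no-effect control and ±100 the full control effect; compound concentration not given in the record; the text of the record puts the active cut at -80%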
Target sequence (Q9GZU1 whole entry, looked up): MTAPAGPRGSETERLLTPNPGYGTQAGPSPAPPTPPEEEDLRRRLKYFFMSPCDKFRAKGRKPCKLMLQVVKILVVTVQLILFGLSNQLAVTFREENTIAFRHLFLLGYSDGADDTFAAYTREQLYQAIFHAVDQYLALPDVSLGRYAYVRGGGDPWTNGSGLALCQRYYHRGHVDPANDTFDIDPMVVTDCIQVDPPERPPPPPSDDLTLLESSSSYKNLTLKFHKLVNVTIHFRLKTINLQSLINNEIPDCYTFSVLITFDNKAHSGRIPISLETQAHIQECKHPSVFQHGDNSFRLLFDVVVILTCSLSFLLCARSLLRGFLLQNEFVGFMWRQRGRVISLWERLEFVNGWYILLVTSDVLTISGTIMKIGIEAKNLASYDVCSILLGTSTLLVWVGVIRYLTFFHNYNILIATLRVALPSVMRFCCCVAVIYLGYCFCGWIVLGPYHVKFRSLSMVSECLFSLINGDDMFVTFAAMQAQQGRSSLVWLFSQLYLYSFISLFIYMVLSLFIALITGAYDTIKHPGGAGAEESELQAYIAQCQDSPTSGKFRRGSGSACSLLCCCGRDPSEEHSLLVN
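Calcium fluorescence in TRPML1-DL cells induced overnight with Tet: a 110 s read after compound pin addition, then a 110 s antagonist read after challenge with 54-4 at 4 uM final (EC80).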
D2 ag – human D2 receptor agonism in beta-arrestin assay; activation, % (test concentration not listed); DiscoveRx PathHunter D2 beta-arrestin, luminescence, 90 min; 100% = 57 uM dopamine signal; AID 624465; P14416; hit rate 0.084% among 360,000; in the data active = activation above about 40%; inconclusive = about 15% to 40%; inactive = below about 15%; further: compound concentration not given in the record; the text of the record calls up to 30% inactive
Target sequence (P14416 whole entry, looked up): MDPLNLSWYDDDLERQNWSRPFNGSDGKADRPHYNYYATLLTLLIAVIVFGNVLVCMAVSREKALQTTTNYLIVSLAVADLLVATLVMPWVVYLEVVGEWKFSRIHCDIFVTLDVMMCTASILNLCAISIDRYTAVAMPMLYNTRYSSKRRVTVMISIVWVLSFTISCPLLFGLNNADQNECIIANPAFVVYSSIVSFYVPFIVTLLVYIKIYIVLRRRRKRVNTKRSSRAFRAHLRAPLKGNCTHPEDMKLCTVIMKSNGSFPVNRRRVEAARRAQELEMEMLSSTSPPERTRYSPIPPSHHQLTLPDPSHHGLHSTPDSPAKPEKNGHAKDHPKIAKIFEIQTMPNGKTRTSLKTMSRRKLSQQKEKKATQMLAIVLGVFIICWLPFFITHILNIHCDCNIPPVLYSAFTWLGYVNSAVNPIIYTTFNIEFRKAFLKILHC
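Agonist mode: compounds alone added to overnight-plated D2 PathHunter cells for 90 min at 37 C, with 57 uM final dopamine (EC100) defining full response. Beta-arrestin recruitment detected by chemiluminescent reagent, read after 1 h at ambient temperature.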
Six1-Eya2 blk – inhibitors of human Six1/Eya2 interaction; activity change, % (no concentration beside the values); Q15475+O00167; AID 651725; AlphaScreen GST-Six1/His-Eya2 binding, biochemical; hits give low values; control for the full effect not named in the record; hit rate 0.56% among 360,000; in the data active = activity change below about -65%; inconclusive = about -30% to -65%; inactive = above about -30%; further: on the % scale 0 is the no-effect control and ±100 the full control effect; compound concentration not given in the record
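AlphaScreen with GST-Six1 and His-Eya2 (5X mix: 250 nM and 500 nM), glutathione donor and nickel acceptor beads; buffer 50 mM Tris pH 8.0, 300 mM NaCl, 1 mM TCEP; 1 h at 37 C in the dark.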
TRPML1 ag – activates the human TRPML1 channel; Q9GZU1; TRPML1-expressing cells, Ca2+ dye fluorescence, FDSS; host cell line not named in the record; reference of the full effect not given here; activation, % (no concentration beside the values); hit rate 0.12% among 410,000; in the data active = activation above about 50%; inconclusive = about 30% to 50%; inactive = below about 30%; further: 0% is about no effect; the text of the record puts the active cut at 80%
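Calcium fluorescence on an FDSS kinetic reader gave the read-out. Tet-induced TRPML1-DL cells were plated overnight, dye-loaded (Ca8 with quencher, 45-90 min, room temperature, dark), then read 110 s after compound addition, and again 110 s after 4uM final 54-4 (EC80).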
PINK1 modulator – modulators of PINK1 expression; Potency, µM (series often up to 76.6 µM), inactives show at the top dose activation (PINK1 increase), hits mostly activators; hit rate 0.2% among 410,000; AID 624263; PINK1 immunofluorescence, high-content cytometry, 24 h; active = well fitted activation curve with a large enough effect; inconclusive = small, poorly fitted or top-dose-only effect; inactive = flat fitted curve, though single readings scatter; cell line not stated here;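 further: potency means the concentration at half of the fitted maximal effect; % of control where 0% means no effect; nearly all actives have a fitted effect of over 65% in size; a mitochondrial uncoupler was the plate control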
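Fluorescence from anti-PINK1 antibody, together with nuclear and cell stains, was scanned on a laser-scanning cytometer. Before staining, stable-line cells were incubated 24 hours with compounds at 5 concentrations; primary antibody 12 h at 10 degrees C.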
D2 PAM – potentiates the human D2 dopamine receptor allosterically; P14416; DiscoveRx D2 beta-arrestin cells, luminescence, 90 min; 100% = 57 uM dopamine signal; potentiation, % (no concentration beside the values); hit rate 0.23% among 360,000; active = potentiation of 50% or more; inconclusive = 30% to 50%; inactive = 30% or less;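 further: compound concentration not given in the record; tested on top of an EC20 dose of dopamine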
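PathHunter beta-arrestin assay in DiscoveRx D2 cells. Compounds were added with an EC20 of dopamine (50 nM final) for 90 min at 37 deg C. Luminescence was read 1 h after detection reagent, with 57 uM dopamine as the EC100 control.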
Starred values were filed as active, the others as inactive; ? = inconclusive; . = no result given; & = joins results of further samples; [ ] = remark or other dose.

Each structure is followed by: TRPML1 inh	D2 ag	Six1-Eya2 blk	TRPML1 ag	PINK1 modulator	D2 PAM
[1] C[C@@H]1O[C@@H](O[C@@H]2[C@@H](O)[C@H](OCCc3ccc(O)c(O)c3)O[C@H](CO)[C@H]2OC(=O)/C=C/c2ccc(O)c(O)c2)[C@H](O)[C@H](O)[C@H]1O
  -3	-1.5	?	-0.5	0.9%	-8
[2] CCC(C(=O)NCc1ccccc1Cl)n1c(=O)c2cccn2c2ccccc21 (stereo unspecified)
  7	.	.	3.8	0.7%	.
[3] CC(C)(C)OC(=O)C[C@H]1C/C=C\C[C@@H](CC(=O)N[C@H](CO)Cc2ccccc2)C(=O)NC[C@@H](c2ccccc2)OC1=O
  -24	-5.5	-1	-0.1	1.2%	5
[4] O=C(N/N=C/c1ccccc1)C1CCCN1C(=O)c1cc([N+](=O)[O-])cc([N+](=O)[O-])c1 (stereo unspecified)
  -5	9.9	-1	-0.4	-0.9%	20
[5] COc1cc(/C=N/Nc2ccc(Cl)c(C(=O)O)c2)ccc1OC(=O)c1ccco1
  5	-0.1	0	1.2	1.5%	11
[6] COc1ccc(-c2ccc(CO)o2)cc1N
  -1	-0.6	-15	0.1	-1.4%	9
[7] CC1=C(C(=O)NCc2ccc(Cl)cc2)C2(CCCCC2)OC1=O
  -7	.	.	1.2	-0.1%	.
[8] CCCC(=O)C1CCN(Cc2ccccc2)CC1
  -11	0.1	0	0.7	0.1%	-8
[9] Cc1ccc(-c2nnc(Nc3ccc(OCC(N)=O)cc3)c3ccccc23)cc1S(=O)(=O)N(C)C
  7	.	.	1.0	2.1%	.
[10] CC(=O)Nc1cccc(NS(=O)(=O)c2cn(C)c(=O)n(C)c2=O)c1
  3	-5.3	3	-0.4	0.6%	-2
[11] Cc1ccc(C(=O)N/C(=C\c2cccc([N+](=O)[O-])c2)C(=O)OCN2C(=O)c3ccccc3C2=O)cc1
  -11	-1.5	0	0.9	1.1%	-20
[12] S=C(NCCc1ccccc1)NC1CCCCCC1
  5	-5.5	4	-1.2	-1.0%	-10
[13] O=C(CCCN1C(=O)c2ccccc2C1=O)Nc1ccc(Br)cn1
  -9	1.5	2	-0.4	?	-16
[14] Cc1ccc(N(C)C(=O)Cn2ncc3c([nH]c4ccccc43)c2=O)cc1C
  -8	.	.	2.1	0.6%	.
[15] CC(C)Cn1c(=O)c2c(nc3n2CCCN3CCc2ccccc2)n(C)c1=O
  35	2.0	?	4.0	-0.7%	10
[16] CCOC(=O)c1sc(NC(=S)NC(=O)CC(C)C)cc1C
  -2	-8.3	-9	-0.8	1.8%	-9
[17] Cc1cc(C)n(CC(O)Cn2c3ccccc3c3ccccc32)c(=O)n1 (stereo unspecified)
  11	4.6	-4	1.9	-3.8%[38.3 µM]	-7
[18] CC1=C(C(=O)Nc2ccccc2C(=O)N2CCCCC2)SCCO1
  -1	-4.7	-3	-0.4	-0.4%	-4
[19] COc1ccc(NC(=O)N2CCCCC2)cc1
  -2	-3.4	0	0.5	9.9%[38.3 µM]	-6
[20] CCOc1cc(-c2nnc(NC(=O)c3ccco3)o2)cc(OCC)c1OCC
  -8	0.5	3	0.1	5.0%	-19
[21] CCOC(=O)CCC(=O)OCC(=O)NC(C)C1CC2CCC1C2 (stereo unspecified)
  5	-2.8	32	-0.3	0.3%	-4
[22] Cc1cccc(CN2CCCC(C(=O)Nc3ccc(-c4cscn4)cc3)C2)c1 (stereo unspecified)
  -1	-3.6	-15	0.0	?	-36
[23] N=C1S/C(=C\c2ccccc2)C(=O)N1c1ccc(F)cc1
  20	-5.1	0	-0.1	5.2%	-10
[24] O=C(CN1CCN(c2ncccn2)CC1)Nc1ccccc1C(F)(F)F
  -1	13	-2	0.0	7.1%	2
[25] COCCCNc1ccn2nc(-c3cc(OC)c(OC)c(OC)c3)cc2n1
  .	4.0	0	-0.9	3.8%	2
[26] O=C(NCc1ccco1)c1ccc(OC2CCN(Cc3ccccn3)CC2)cc1
  6	-1.7	-1	0.1	1.2%	-8
[27] CC(=O)Cc1cc2cc([N+](=O)[O-])ccc2oc1=O
  -7	-5.4	7	-0.6	2.2%	-16
[28] O=C(c1ccc(C(F)(F)F)cc1)C1CCCN(C(=O)c2cnccn2)C1 (stereo unspecified)
  2	-3.1	-6	-0.3	2.0%	-2
[29] C=Cc1ccc(Cn2c(=O)cc(C)c3c(C)nn(C)c32)cc1
  -4	.	.	1.4	5.3%	.
[30] Cc1ccc(CNC(=O)c2ccc(-c3nc(CS(=O)(=O)c4ccc(C)cc4)c(C)o3)cc2)cc1
  39	.	.	0.6	5.7%	.
[31] Cc1cc(NC(=O)CCC(=O)N(CC(=O)NC2CCCC2)c2ccc(C)c(F)c2)no1
  -15	1.8	-9	0.3	-3.5%	-6
[32] COc1ccc2c(CC(=O)NCc3ccc4c(c3)OCO4)coc2c1
  6	-2.9	-12	0.0	-2.8%[38.3 µM]	-4
[33] CSC1=NC2(CCN(C(=O)NC3CCCCC3)CC2)N=C1c1ccc(C(C)(C)C)cc1
  -7	.	.	0.6	2.5%	.
[34] CCOc1ccc(CC(=O)Nc2nccs2)cc1OCC
  -2	-3.3	1	-1.2	1.2%	2
[35] Cc1ccccc1/C=C/C12NC(=O)CN1c1ccccc1C2(C)C (stereo unspecified)
  13	-0.5	-11	0.8	7.5%	-11
[36] O=C(Cn1cnc2ccccc2c1=O)c1cccs1
  13	-2.7	0	-0.1	-0.4%	-21
[37] CCc1ccc(-c2cn3nc(-c4ccccc4)cnc3n2)cc1
  12	-4.3	10	3.2	3.8%	-18
[38] CN(C)C(=O)Nc1ccccc1
  14	4.0	5	0.9	-1.2%	-3
[39] COc1ccc(-c2c(C)c3ccc(O)c(CN4CCOCC4)c3oc2=O)cc1
  46	.	.	-0.4	0.9%	.
[40] Cc1oc(-c2ccc(Cl)cc2)nc1CS(=O)CC(=O)NCCCN1CCOCC1 (stereo unspecified)
  -2	-2.2	-1	4.6	0.8%	-6
[41] CCC(=C(c1ccc(OC)cc1)c1ccc(OC)cc1)c1cn(CC(O)CN(CCO)CCO)c2ccccc12 (stereo unspecified)
  -1	-1.1	-20	0.2	-2.9%	-11
[42] Cn1cc(S(=O)(=O)Nc2ccc(Br)cc2F)c(=O)n(C)c1=O
  3	-6.5	-10	0.2	2.6%	-5
[43] Fc1ccccc1N1CCN(c2nc3ccccc3c3nc(-c4ccccc4)nn23)CC1
  24	.	.	-0.6	-0.6%	.
[44] COc1ccccc1-c1cc(C(=O)Nc2ccc(F)cc2F)no1
  -11	-0.2	1	-0.3	6.1%[38.3 µM]	-8
[45] Cc1c(Cl)cccc1NC(=O)CCN1C(=O)c2ccccc2Sc2ncccc21
  -3	.	.	1.1	-0.8%	.
[46] COc1ccc(CNC(=O)C(NS(=O)(=O)c2ccc3c(c2)CCCN3C(C)=O)C(C)C)cc1 (stereo unspecified)
  1	-2.6	1	-0.3	-4.0%[38.3 µM]	-5
[47] COc1cccc(CNn2cnnc2)c1O
  -11	-5.0	15	0.0	-0.5%	1
[48] CC(=O)Nc1ccccc1-c1nc2ccccc2n(C(C)C(=O)Nc2cc(Cl)ccc2C)c1=O (stereo unspecified)
  -14	.	.	1.9	3.6%	.
[49] N#CC(C#N)=c1ccc2c(c1)N1C3=C(CCCC3)CC3CCCCC31N=2 (stereo unspecified)
  31	3.2	-26	-0.2	?	71*
[50] CC(NC(=O)C1CCN(S(=O)(=O)c2ccccc2)CC1)c1ccccc1 (stereo unspecified)
  -28&-14	8.2	8	-0.3&-0.4	-1.1%&0.8%	2
[51] COc1ccc(-c2nc(N)n(C(=O)Cc3ccccc3)n2)cc1
  0	-3.2	8	-0.9	0.2%	-10
[52] COc1ccc(Cl)c2c1[nH]c1nc(SCc3cccnc3)nnc12
  8	-4.8	-2	-1.1	9.0%	-6
[53] O=C(CSc1cccs1)Nc1cccc2ccccc12
  15	-0.3	2	-0.4	-0.7%	-4
[54] CC(=O)c1sc2c(c1N)c(=O)[nH]c(=O)n2-c1ccccc1
  -8	-2.2	8	-0.2	0.2%	-4
[55] CCNC(=O)C1(C)CCN1C(=O)CCc1cccc(Cl)c1 (stereo unspecified)
  .	-3.3	19	-0.3	2.4%	-5
[56] O=C(Cc1ccc(Cl)cc1)NNS(=O)(=O)c1ccc([N+](=O)[O-])cc1
  21	2.0	0	0.4	-0.9%	9
[57] O=C(OCN1C(=O)c2ccccc2C1=O)/C(=C\c1ccco1)NC(=O)c1ccccc1
  3	-3.2	-2	0.0	-3.9%	-9
[58] CN1CCN(CC(=O)Nc2ccccc2Sc2ccccc2)CC1
  -13	-3.3	2	1.2	-1.7%	-17
[59] CN(Cc1cn(Cc2cccc(C(F)(F)F)c2)nn1)C1CN(Cc2cn(Cc3cccc(C(F)(F)F)c3)nn2)S(=O)(=O)C1 (stereo unspecified)
  .	.	-4	0.1	0.3%	.
[60] O=C(c1ccc2ccccc2c1)c1cccc(F)c1C(=O)O
  3	-6.9	0	-0.7	0.2%	-4

(cont.)
Each structure is followed by: TRPML1 inh	D2 ag	Six1-Eya2 blk	TRPML1 ag	PINK1 modulator	D2 PAM
[61] CCN(C(=O)COC(=O)CNC(=O)C1CCCCC1)c1ccccc1
  7	-3.2	5	0.6	-2.3%	1
[62] COCCNC(=O)c1onc(CSc2ccc(C)c(C)c2)c1C(=O)O
  -10	-2.0	3	-0.5	2.0%	-10
[63] O=[N+]([O-])c1ccc(-c2csc(N/N=C/c3cccnc3)n2)cc1
  10	-5.3	3	1.5	1.9%	-24
[64] COCCn1ccc2c(OCC(=O)Nc3cc(OC)ccc3OC)cccc2c1=O
  -11	-2.5	-27	0.9	-2.7%	11
[65] CC1(NC(=O)Cc2c(Cl)cccc2Cl)CCS(=O)(=O)C1 (stereo unspecified)
  3	0.3	5	-0.7	-1.1%	0
[66] Cc1cc2nc(/C=C/c3nc4cc(C)c(C)cc4[nH]3)[nH]c2cc1C
  5	1.4	-2	-0.2	4.4%	-3
[67] COc1cccc(CC(=O)Nc2cc(S(=O)(=O)N3CCOCC3)ccc2OC)c1
  -10	-3.2	-1	0.6	-3.5%	-16
[68] CON(C)c1nc(C2CCCCC2)c2cc(C)ccc2n1
  4	1.3	32	-0.2	5.5%	-12
[69] CCCCN(C)CCC(=O)Nc1ccc(F)c(F)c1
  0	1.5	1	0.1	-0.1%	-28
[70] Cn1c(SCC(=O)N2CCCC2=O)nnc1-c1ccccc1F
  3	-0.2	-1	-0.3	-0.3%	-2
[71] Cc1nn(CC(O)Cn2c3c(c4ccccc42)CCN(C)C3=O)c(C)c1Br (stereo unspecified)
  0	-2.4	-2	1.2	-0.5%	-11
[72] COCCCN(C(=O)c1ccc(-c2ccc(C(C)=O)cc2)o1)c1c(N)n(CC(C)C)c(=O)[nH]c1=O
  -14	-4.7	6	0.8	-0.9%	-16
[73] NC(=O)c1ccc[n+](CC(=O)c2ccc(F)cc2)c1
  16	-3.5	5	-0.3	-1.4%	-20
[74] CCCCNC(=S)Nc1ccc2nc(N3CCN(CC)CC3)cc(C)c2c1
  -7	-2.5	11	-0.6	5.3%	-21
[75] Oc1cccc2ccc(/C=C/c3ccccc3Br)nc12
  6	-12	-4	1.0	22%	-38
[76] Cc1[nH]c2ccccc2c1C1=CN2CCS(=O)(=O)N=C2S1
  18	-1.9	-9	-0.1	-0.5%	-23
